# Bioassay records as filed in PubChem.
# GLA inh pH 4.5 = inhibitors of human alpha-galactosidase A at pH 4.5. 230,000 tested, under 10 active. purified enzyme, 4-MU-alpha-Gal fluorescence, pH 4.5. AID 1467. activity change, negative = inhibition, % at 105 µM. P06280; inconclusive = small, poorly fitted or top-dose-only inhibition, or a rising curve; inactive = flat fitted curve, though single readings scatter; no compound was filed as active;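 further: 0% = full activity with enzyme and -100% = basal without enzyme; dose as in the result columns while the protocol names 77 µM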
# Rango release inh = inhibitors of RanGTP-induced Rango-importin beta complex dissociation; Potency, µM (top dose mostly 46.1 µM), for the others: at the top dose activity change, negative = inhibition; Biochemical FRET Rango-importin beta, RanGTP-induced dissociation; O95149+P62826; AID 540253; hit rate 0.071% among 340,000; active means falling FRET ratio curve, often poorly fitted, with flat reads before Ran was added; inconclusive means other falling curves, or compound fluorescence or quenching; inactive means flat or rising ratio curve;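 further: potency means the concentration at half of the fitted maximal effect; % of control where 0% means no effect; nearly all actives have a fitted effect of over 45% in size; -100% = wells without RanGTP and RCC1; the record marks most hits as doubtful in a second field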
#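 Recombinant Rango FRET biosensor (EYFP–snurportin 1 IBB–cerulean CFP10) at 0.1 uM premixed with 0.25 uM importin beta in PBS, 1 mM DTT, 0.02% Tween-20, 0.1% BSA. Compound added 5 min; RanGTP-RCC1 (0.6 uM Ran, 2 mM GTP, 0.2 uM RCC1) then triggers release, read at 45 min.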
# miR-21 FLuc = miR-21 reporter, rising signal; HeLa miR-21 FLuc reporter, luciferase, 48 h; 340,000 tested, under 10 active; Potency, µM (series often up to 38.3 µM), for the others: at the highest dose reporter change, positive = more light; active = well fitted rising curve with a large enough effect; inconclusive = small, poorly fitted or top-dose-only effect; inactive = no such curve, though single readings can be large or run the other way;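 further: % of control where 0% means no effect; miR-21 action dims this reporter so a rising signal means less miR-21 action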
#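 HeLa cells stably expressing CMV-driven firefly luciferase with a downstream miR-21 binding sequence, endogenously expressing miR-21, were treated with titrations (up to about 40uM final) for 48 hours at 37 degree Celsius. Luciferase luminescence was read after lysis.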
# Rango complex inh = inhibitors of Rango-importin beta complex formation. AID 540263. hit rate 0.031% among 340,000. Potency, µM (top dose mostly 92.2 µM), without a hit: top-dose inhibition of complex formation. Rango CFP/YFP FRET sensor + importin beta, 45 min. Q14974; active = rising FRET ratio curve, often small or poorly fitted; inconclusive = mostly compound fluorescence or quenching in the first reads; inactive = flat curves in all reads;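 further: potency means the concentration at half of the fitted maximal effect; 0% = DMSO wells and 100% = buffer wells lacking importin beta; nearly all actives have a fitted effect of over 15% in size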
# Target sequence (Q14974 whole entry, looked up): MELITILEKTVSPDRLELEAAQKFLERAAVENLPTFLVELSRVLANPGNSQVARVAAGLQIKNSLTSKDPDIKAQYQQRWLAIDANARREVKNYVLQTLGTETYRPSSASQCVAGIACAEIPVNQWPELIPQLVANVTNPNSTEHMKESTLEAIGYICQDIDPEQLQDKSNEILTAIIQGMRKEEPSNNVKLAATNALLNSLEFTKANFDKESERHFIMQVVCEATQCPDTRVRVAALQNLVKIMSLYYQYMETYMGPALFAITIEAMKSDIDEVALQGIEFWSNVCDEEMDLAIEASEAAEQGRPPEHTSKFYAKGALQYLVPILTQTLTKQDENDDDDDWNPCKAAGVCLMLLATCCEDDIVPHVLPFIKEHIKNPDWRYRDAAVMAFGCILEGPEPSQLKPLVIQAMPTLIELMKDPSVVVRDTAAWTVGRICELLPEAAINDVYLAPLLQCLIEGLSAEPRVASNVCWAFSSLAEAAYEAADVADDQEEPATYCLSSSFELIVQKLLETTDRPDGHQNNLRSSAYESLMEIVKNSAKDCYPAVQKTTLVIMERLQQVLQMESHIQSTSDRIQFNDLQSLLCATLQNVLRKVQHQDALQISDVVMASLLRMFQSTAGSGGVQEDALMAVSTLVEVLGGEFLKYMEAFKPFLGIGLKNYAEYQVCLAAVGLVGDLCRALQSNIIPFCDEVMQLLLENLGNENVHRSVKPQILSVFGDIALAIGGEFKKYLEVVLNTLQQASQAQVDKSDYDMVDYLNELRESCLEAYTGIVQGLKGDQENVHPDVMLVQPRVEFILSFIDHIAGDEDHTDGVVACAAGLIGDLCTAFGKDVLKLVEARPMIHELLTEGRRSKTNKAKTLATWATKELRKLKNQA
#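 FRET biosensor (snurportin 1 IBB flanked by EYFP and cerulean), 50 nM, with compound 5 min, then 0.125 microM importin beta in PBS, 1 mM DTT, 0.02% Tween-20, 0.1% BSA. CFP/YFP ratio read after 45 min at room temperature; pre-read flags interference.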
# Starred values were filed as active, the others as inactive; ? = inconclusive; · = not tested or not shown; [ ] = another dose, or the depositor's remark. A portion of the library. The share of hits here may be higher or lower than overall.
no.	SMILES	GLA inh pH 4.5	Rango complex inh	Rango release inh	miR-21 FLuc
1	O=C(CN1CCCCC1)NNC(=O)c1cccc(Br)c1	·	0.2%	-1%	-4%
2	Cc1ccccc1NC(=O)c1c(C)[nH]c(=S)c(C#N)c1-c1ccco1	2	-0.1%	5%	-6%
3	CC(=O)Nc1ccc(S(=O)(=O)N2CCN=C2SCc2cccnc2)cc1	1	-0.7%	7%	0%
4	COc1ccc(S(=O)(=O)N2CCN(C)CC2)c2ccccc12	0	-0.3%	1%	-8%
5	Cc1ccc(C(=O)N/C(=C\c2sccc2C)C(=O)NCc2ccncc2)cc1	-2	?	17%	-9%
6	CC(=O)c1cccc(NC(=O)CN(C)Cc2ccc(OC(F)F)cc2)c1	-17	1.0%	22%	-1%
7	Cc1ccccc1C(=O)Nc1ccnn1C1CCN(Cc2ccccn2)CC1	·	-3.2%	-12%	-6%
8	COc1ccc(N2CCN(Cc3nc(N)nc(Nc4ccc(C)c(Cl)c4)n3)CC2)cc1	-7	-1.7%	5%	28%
9	CCOC(=O)c1sc(NC(=O)c2ccc(S(=O)(=O)N3CCCCC3)cc2)nc1-c1ccccc1	-10	0.2%	-4%	8%
10	Cc1cc(C2N=C(N)Nc3nc4ccccc4n32)c(C)n1-c1ccccc1Cl (stereo unspecified)	-1	5.4%	25%	13%
11	CCOC(=O)C(C(=O)OCC)C(Nc1ccc(Br)cc1)c1ccccc1 (stereo unspecified)	10	-0.5%	-8%	28%
12	Cc1ccc(OCC(=O)NCCNC(=O)c2cccnc2)cc1C	·	-1.4%	-24%	-5%
13	CCC(=O)OCCNc1nc(-c2ccccc2)nc2ccccc12	-7	1.9%	-5%	-1%
14	COC(=O)NNC(=O)c1ccccc1OC	4	?	?	-1%
15	Cc1ccsc1/C=N/NC(=O)c1ccncc1	-9	0.3%	-8%	-9%
16	O=C(c1cccnc1)N1c2ccccc2Sc2ccccc21	6	-0.9%	25%	23%
17	O=C(NNC(=O)c1ccc(-n2cncn2)c([N+](=O)[O-])c1)c1ccccc1	·	0.1%	3%	·
18	CC(C)(C)OC(=O)C[C@H]1C/C=C\C[C@H](CC(=O)N[C@H](CO)Cc2ccccc2)C(=O)N2CCC[C@@H]2COC1=O	·	-0.9%	-2%	·
19	Cc1cc(C)n(-c2nc3ccccc3c3nc(C)nn23)n1	-2	6.6%	5%	1%
20	O=C(CNCc1ccco1)Nc1ccccc1-n1cccc1	4	?	15%	-4%
21	CCOC(=O)C1CCCN(C(=O)C2CCN(S(=O)(=O)N3CCC4(CC3)OCCO4)CC2)C1 (stereo unspecified)	4	1.8%	0%	-1%
22	CC(C)Cc1ccc(CN2CCCC(NC(=O)CCN3CCOCC3)C2)cc1 (stereo unspecified)	·	0.5%	-9%	2%
23	CCCn1nnc2sc3c(c2c1=O)CCC(C)C3 (stereo unspecified)	8	-0.5%	1%	-59%
24	COC(=O)c1ccc(NC(=O)C(=O)N2CCCC2)cc1	4	1.3%	17%	-15%
25	O=C(Cc1cccc2ccccc12)N1CCCc2ccccc21	2	-3.9%	6%	-11%
26	Cc1ccc(N2C(=O)N3[C@H](c4ccc(Cl)cc4)[C@@H]4C(=O)N(C5CCCCC5)C(=O)[C@@H]4[C@]3(Cc3ccccc3)C2=O)cc1	·	-6.6%	-8%	-8%
27	COc1ccc(C(=O)SC2=NCCS2)cc1	3	-2.8%	2%	-6%
28	Cc1ccc2c(c1)[C@H]1[C@H](CO2)[C@H](c2ccccc2)[C@]2(C)C(=O)Nc3ccccc3C(=O)N12	·	?	-10%	·
29	CN(C)c1ccc2c(c1)OC(N)=C(C#N)C2c1cccc(F)c1 (stereo unspecified)	-3	?	?	24%
30	CN1CCc2nc(SCC(=O)Nc3ccc(F)cc3)c(C#N)cc2C1	0	·	·	-6%
31	COc1ccccc1NC(=O)c1c(N=Cc2ccccc2O)cnn1C	3	·	·	-3%
32	O=C(CN1CCC(NC(=O)c2ccccc2Cl)CC1)NCc1ccco1	1	-6.3%	5%	0%
33	Cc1ccc(S(=O)(=O)Nc2nc3ccccc3s2)cc1	-2	-0.4%	-6%	-6%
34	C(=N\N1CCOCC1)/c1cn(-c2ccccc2)nc1-c1ccccc1	-8	1.2%	5%	2%
35	CCCCCNC(=O)c1ccc2c(=O)n(CCOC)c(=O)[nH]c2c1	?	0.1%	-1%	3%
36	Cc1ccsc1C(=O)NCCc1nnc2ccccn12	·	-3.1%	9%	-42%

# Profiles as entered above:
# `C(=N\N1CCOCC1)/c1cn(-c2ccccc2)nc1-c1ccccc1` in the list: GLA inh pH 4.5: -8; Rango complex inh: 1.2%; Rango release inh: 5%; miR-21 FLuc: 2%
# `CCCCCNC(=O)c1ccc2c(=O)n(CCOC)c(=O)[nH]c2c1` in the list: GLA inh pH 4.5: ?; Rango complex inh: 0.1%; Rango release inh: -1%; miR-21 FLuc: 3%

# (next part)
no.	SMILES	GLA inh pH 4.5	Rango complex inh	Rango release inh	miR-21 FLuc
37	CC(=O)c1cccc(NC(=O)NC2CC(=O)N(c3ccc4c(c3)OCCO4)C2)c1 (stereo unspecified)	·	0.8%	-4%	·
38	c1nnc2c3c4c(sc3ncn12)CCCC4	7	·	·	-1%
39	Cc1cccc(NC(=O)c2sccc2-n2cccc2)c1C	1	-0.1%	-2%	-5%
40	CCC(NC(=O)CSc1nnnn1C1CC1)c1ccc(Br)cc1 (stereo unspecified)	·	4.0%	-4%	·
41	Cc1nn2c3cc(N4CCOCC4)ccc3nc2c2ccccc12	·	0.2%	-6%	·
42	Cc1ccc(NC(=O)N2CCC(NC(=O)c3cccc(C)c3)CC2)cc1	·	-0.8%	-3%	0%
43	COc1ccc(N2CCN(C(=O)CSc3nnc4nc(C)cc(C)n34)CC2)cc1	·	1.9%	7%	·
44	COc1ccc(-c2onc3ccc(Cl)cc23)cc1	-5	-1.4%	-13%	-6%
45	CC1CCCN(CC(=O)Nc2ccc(S(=O)(=O)N3CCCCCC3)cc2)C1 (stereo unspecified)	1	1.4%	-15%	1%
46	CN(C)c1cccc(C(=O)Nc2nnc(Cc3ccccc3)s2)c1	·	-0.5%	-5%	-16%
47	COc1cc(-n2c(C)nc3cc(C(=O)O)ccc32)cc(OC)c1OC	-1[21.1 µM]	0.1%	-3%	-2%
48	CCC(C)[C@H](NC(=O)Nc1ccc(S(N)(=O)=O)cc1)C(=O)OC (stereo partly specified)	0	1.6%	9%	-2%
49	CSc1ncccc1C(=O)Nc1ccc(S(=O)(=O)Nc2nccs2)cc1	-2	?	-18%	-2%
50	COc1c2c(nc3occc13)C(CCC(C)(C)O)(OC)C(O)CC2 (stereo unspecified)	-2	-1.9%	2%	-3%
51	N#C/C(=N\O)c1nc2ccccc2s1	-5	-0.2%	0%	1%
52	CC(NC(=O)COC(=O)COc1cccc2c1OC(C)(C)C2)c1ccccc1 (stereo unspecified)	·	-2.5%	5%	-3%
53	O=C(Nc1ccc2oc(-c3ccccc3F)nc2c1)c1cncc(Br)c1	-1	1.4%	-5%	-32%
54	COc1ccc(OC)c(NC(=O)CSC2=NN3CCCC(=O)N=C3S2)c1	·	-3.2%	5%	-4%
55	Cc1cc(C)n(-c2nc3ccccc3nc2N2CCCCCC2)n1	-20	?	?	-4%
56	CC1CC(C)CN(CCOc2cccc3ccccc23)C1 (stereo unspecified)	·	-6.0%	1%	-6%
57	CC(=O)c1ccc(NC(=O)C(C)OC(=O)/C=C/c2ccco2)cc1 (stereo unspecified)	·	?	12%	·
58	O=C(c1cc(=O)[nH]c2ccccc12)N1CC=C(c2ccccc2)CC1	·	-3.1%	14%	·
59	COc1ccc2oc(C(=O)OCC(=O)N(CCC#N)c3ccccc3)c(C)c2c1	·	0.8%	10%	-3%
60	CCNC(=S)N(CCc1ccc(S(N)(=O)=O)cc1)C1CC(=O)N(c2ccccc2)C1=O (stereo unspecified)	1	1.5%	-5%	21%

# Shown screen by screen: entries from further up.
49. CSc1ncccc1C(=O)Nc1ccc(S(=O)(=O)Nc2nccs2)cc1
57. CC(=O)c1ccc(NC(=O)C(C)OC(=O)/C=C/c2ccco2)cc1 (stereo unspecified)
55. Cc1cc(C)n(-c2nc3ccccc3nc2N2CCCCCC2)n1
50. COc1c2c(nc3occc13)C(CCC(C)(C)O)(OC)C(O)CC2 (stereo unspecified)

entry no. | 49 | 57 | 55 | 50
GLA inh pH 4.5 | -2 | · | -20 | -2
Rango complex inh | ? | ? | ? | -1.9%
Rango release inh | -18% | 12% | ? | 2%
miR-21 FLuc | -2% | · | -4% | -3%

# (more compounds)
no.	SMILES	GLA inh pH 4.5	Rango complex inh	Rango release inh	miR-21 FLuc
61	COc1cccc(C(=O)NCC(=O)OCC(=O)C(C)(C)C)c1	-16	-0.6%	8%	-3%
62	CC1=C(C(=O)OC(C)C)C(c2cccc(F)c2)n2ncnc2N1 (stereo unspecified)	5	-3.7%	13%	1%
63	CCn1nc(C)cc1C(=O)N1CCCC(N2CCN(Cc3ccc4c(c3)OCO4)CC2)C1 (stereo unspecified)	·	0.0%	-7%	5%
64	Cc1ccc(SC(C)C(=O)Nc2c(C)n(C)n(-c3ccccc3)c2=O)cc1 (stereo unspecified)	6	-2.2%	12%	0%
65	c1cc(N2CCCC2)ccc1C(c1nnnn1C1CCCCC1)N1CCOCC1 (stereo unspecified)	-1	?	-15%	-24%
66	O=C(CCS(=O)(=O)c1cccs1)Nc1ccc(C(=O)NCc2cccs2)cc1	-4	-4.1%	16%	-11%
67	Cc1ccc(CNC(=O)Cn2ccc3cc(S(=O)(=O)N4CCCCCC4)ccc32)cc1	·	0.6%	12%	8%
68	CCc1ccc(C(=O)N2CCCN(C)CC2)s1	·	-0.4%	0%	0%
69	O=C(OCC(=O)N1CCCCC1)c1cccc(NS(=O)(=O)c2ccccc2)c1	·	2.0%	-13%	·
70	C=CCn1c(C)nc2c(cnn2-c2ccccc2)c1=O	·	-0.7%	10%	-23%
71	COCCCNc1ncnc2c1[nH]c1ccccc12	-6	·	·	-12%
72	COc1ccc(Br)cc1S(=O)(=O)NCc1ccccn1	·	-0.9%	-9%	0%
73	CCOc1ccc2nc(NC(=O)CSc3nc(SC)ns3)sc2c1	-3	?	-12%	-40%
74	CC(C)[C@H](NS(=O)(=O)c1ccc(Cl)cc1)C(=O)OCC(=O)c1c(N)n(C)c(=O)n(C)c1=O	·	-12%	-7%	·
75	Cc1ccc(-c2csc3nc(SCC(N)=O)n(Cc4ccccc4)c(=O)c23)cc1	-3	4.7%	22%	-9%
76	COc1ccccc1C(=O)NC(=O)COc1cc(Cl)ccc1Cl	·	?	9%	·
77	Cc1cc(C(F)(F)F)c(C#N)c(SCC(=O)Nc2nc3ccccc3s2)n1	0	?	?	-1%
78	CC1=NN(C(N)=S)C(=O)C1N=Nc1ccc(Cl)cc1 (stereo unspecified)	·	-4.4%	-9%	-53%
79	Cc1ccc(/C=C2\SC(=S)N(CCC(=O)Nc3cccnc3)C2=O)cc1	·	-2.0%	0%	-1%
80	CCOc1ccccc1C(=O)Nc1ccc(S(=O)(=O)Nc2nccc(C)n2)cc1	·	?	-12%	-20%
81	COC(=O)c1c(-c2cccs2)csc1NC(=O)CSc1ncnc2sc(C)c(C)c12	4	-0.6%	8%	-8%
82	Cc1nn(-c2ccccc2)c(C)c1C(=O)Nc1nnc(-c2ccco2)o1	-7	-5.8%	23%	-7%
83	C=CCNC(=O)c1ccccc1SCc1c(C)noc1C	·	1.7%	3%	-2%
84	O=C(ONC(=O)C1CCCCC1C(=O)NOC(=O)c1ccccc1)c1ccccc1 (stereo unspecified)	·	5.2%	24%	·
85	Nc1ccc(S(=O)(=O)C(F)(F)F)cc1N	5	-2.1%	1%	1%
86	CCCCn1c(N)c(N(CCC(C)C)C(=O)C2CC(=O)N(c3ccccc3OCC)C2)c(=O)[nH]c1=O (stereo unspecified)	·	-2.1%	-18%	-7%
87	O=C(CC1NC(=O)NC1=O)Nc1ccc(Cl)cc1 (stereo unspecified)	-15	-3.7%	2%	7%
